KCNQ2 pot: KCNQ2 (rat) channel potentiation; O88943; CHO-K1 KCNQ2, FluxOR thallium flux fluorescence; hits give high values; B-score at 10 µM; 310,000 tested, 0.54% active;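 active = fluorescence ratio B-score at least 3 SD of library B-scores, with initial fluorescence B-score within 3 SD, cut at about 5.3 in these data; same plate scores as AID 2156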;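 also: B-score of peak minus minimum over baseline fluorescence ratio after K+ and Tl+ stimulus; positive B-score means potentiation of KCNQ2 with more thallium influx and brighter signal; only the inactives scoring about 0 or higher are listed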
Target sequence (O88943 whole entry, looked up): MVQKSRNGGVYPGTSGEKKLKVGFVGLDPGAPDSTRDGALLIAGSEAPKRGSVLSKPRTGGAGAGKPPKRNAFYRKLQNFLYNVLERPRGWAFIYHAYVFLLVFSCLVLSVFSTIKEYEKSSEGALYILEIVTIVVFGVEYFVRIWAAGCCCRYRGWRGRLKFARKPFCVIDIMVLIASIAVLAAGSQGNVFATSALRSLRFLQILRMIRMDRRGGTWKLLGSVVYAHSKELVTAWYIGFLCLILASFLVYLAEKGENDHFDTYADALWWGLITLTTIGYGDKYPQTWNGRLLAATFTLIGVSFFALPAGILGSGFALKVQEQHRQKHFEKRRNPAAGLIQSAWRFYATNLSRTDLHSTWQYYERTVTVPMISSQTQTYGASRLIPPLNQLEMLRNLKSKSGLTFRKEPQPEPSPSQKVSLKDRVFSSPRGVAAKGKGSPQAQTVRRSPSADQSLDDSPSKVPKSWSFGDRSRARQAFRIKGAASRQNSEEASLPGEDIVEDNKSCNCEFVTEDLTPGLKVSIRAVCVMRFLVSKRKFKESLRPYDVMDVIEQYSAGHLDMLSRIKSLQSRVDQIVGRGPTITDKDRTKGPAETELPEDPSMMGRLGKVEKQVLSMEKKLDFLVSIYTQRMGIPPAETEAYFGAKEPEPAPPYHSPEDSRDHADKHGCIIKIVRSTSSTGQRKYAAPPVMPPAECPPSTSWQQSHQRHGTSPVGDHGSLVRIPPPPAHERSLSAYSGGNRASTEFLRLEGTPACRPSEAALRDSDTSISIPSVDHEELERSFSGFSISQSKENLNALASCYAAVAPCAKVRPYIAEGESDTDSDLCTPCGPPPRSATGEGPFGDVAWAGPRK
KCNQ2 pot baseline: second read-out of KCNQ2 pot, no call of its own (marks repeat the call); B-score; compound at 10 µM; measured here: initial fluorescence intensity artifact check;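 brightness before thallium and not channel activity; 0 = typical well and far values either way flag optical interference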
* marks the source's active call; other numbers are inactive results.

structure	KCNQ2 pot	KCNQ2 pot baseline
CCN1C(=O)[C@H]2[C@@H](c3ccc(-c4ccc(OC)cc4)cc3)N[C@@](CC(C)C)(C(=O)OC)[C@H]2C1=O	0.83	-0.57
CCCn1c(N)[n+](CC(=O)c2ccco2)c2ccccc21	0.14	0.86
O=C1CC2c3ccccc3C1C1C(=O)N(CCc3ccccc3)C(=O)C21 (stereo not given)	1.7	0.09
CC(=O)NC1C(=O)Nc2c1cccc2C(F)(F)F (stereo not given)	0.16	-1.1
CCN1CCN(c2ncnc3scc(-c4ccc(C)cc4)c23)CC1	0.24	0.02
N/N=C(/Cc1nc2ccccc2[nH]1)c1ccc([N+](=O)[O-])cc1	0.26	-2
CCNC(=O)NC(=O)C(C)Sc1nnc(COc2ccccc2Cl)o1 (stereo not given)	2	-0.93
Cc1cc(N)n(-c2ncnc3scc(-c4ccc(Cl)cc4)c23)n1	0.06	-1.3
Cc1ccccc1Nc1ncnc2c1cnn2Cc1ccccc1	1.3	1.5
COc1ccc(/C=C(/C#N)C(=O)Nc2ccccc2C)cc1C(=O)O	0.1	1.4
CCn1c2ccccc2c2cc(NC(=O)c3ccccc3[N+](=O)[O-])ccc21	1.7	-1.3
O=C(CCC(NC(=O)OCc1ccccc1)C(=O)OCc1ccccc1)NCC(=O)OCc1ccccc1 (stereo not given)	0.02	0.57
CSCC[C@H](NC(=O)OC(C)(C)C)C(=O)N1CCC(C(=O)N[C@@H](C)C(=O)NCc2ccc(F)cc2)CC1	1.4	-0.84
Cc1ccc(Cn2c(-n3nc(C)cc3C)nc3c2c(=O)[nH]c(=O)n3C)cc1	0.14	-0.43
CCOC(=O)C1CCCN(S(=O)(=O)c2ccc3c(c2)C(C)(C)C(=O)N3C)C1 (stereo not given)	1.8	0.02

Full records as entered above. Screens in order: KCNQ2 pot, KCNQ2 pot baseline
CCCn1c(N)[n+](CC(=O)c2ccco2)c2ccccc21 across the screens: 0.14, 0.86
COc1ccc(/C=C(/C#N)C(=O)Nc2ccccc2C)cc1C(=O)O across the screens: 0.1, 1.4
Cc1ccc(Cn2c(-n3nc(C)cc3C)nc3c2c(=O)[nH]c(=O)n3C)cc1 across the screens: 0.14, -0.43

The listing continues:
structure	KCNQ2 pot	KCNQ2 pot baseline
Nc1ccc2nc(Cc3ccccc3)[nH]c2c1	0.58	0.03
CCN1C(=O)CC(C(=O)NC)SC1=Nc1cc(Cl)c(O)c(Cl)c1 (stereo not given)	0.65	-1.1
O=C(CNC(=O)c1ccccc1)OC(C(=O)Nc1cc(C(F)(F)F)ccc1Cl)c1ccccc1 (stereo not given)	0.93	-0.86
O=C(Nc1ccccc1OC(F)F)C1CCCN1C(=O)c1cccs1 (stereo not given)	0.41	0.93
Nc1ccc2c(c1)nnn2-c1ccccc1	0.01	-0.13
COc1cc(/C=N/Nc2nc3ccccc3[nH]c2=O)ccc1O	1.4	-0.05
Cc1ccn2c(NC3CCCCC3)c(C)nc2c1	0.22	1.1
Cc1cc(=O)[nH]c(N/N=C/c2cccs2)n1	0.13	-0.21
C=CCn1c(SCC(=O)Nc2sccc2C#N)nc2sc(C)c(C)c2c1=O	3.1	0.01
Cc1ccc2oc(=O)n(CCC(=O)Nc3ccc(N4CCOCC4)cc3)c2c1	0.89	-0.77
CCOC(=O)Cn1c2ccccc2n2nc(CCC(=O)O)c(=O)nc12	0.73	-1.1
O=c1[nH]c(SCc2ccccc2Cl)nc2c1CCCC2	2.1	2.6
O=c1ccn(-c2cccc(C(F)(F)F)c2)nc1-c1ccn(-c2ccccc2F)n1	0.21	1.2
Cc1ccc(C)c(NC(=O)NNC(=O)CCc2ccccc2)c1	0.39	0.12
COc1ccc(C(=O)N/N=C/c2cc3ccccc3[nH]c2=S)cc1	0.07	-1

Next entries
structure	KCNQ2 pot	KCNQ2 pot baseline
C/C(=N/NC(=O)C1CCCCC1)c1ccc([N+](=O)[O-])cc1	0.51	-1.9
CCCCCn1c(=O)[nH]c2cc(C(=O)NCCCN3CCCCC3C)ccc2c1=O (stereo not given)	2.1	-2.5
CCCCNC(=O)Nc1ccc2c(c1)N(C)C(=O)c1ccccc1S2	0.64	-0.35
CCOC(=O)c1sc2ncn(C(C)C(=O)OC)c(=O)c2c1C (stereo not given)	1.3	1.4
O=C(CSc1nc(O)cc(=O)n1-c1ccccc1)Nc1ccc(Br)cn1	0.02	0.62
C=C1C2(C(=O)Nc3nccs3)CCC(C2)C1(C)C (stereo not given)	0.45	-0.75
O=C(c1ccccc1)c1ccc(OCC(O)CN2CCN(S(=O)(=O)N3CCCCC3)CC2)cc1 (stereo not given)	0.75	-0.19
CCCOC(=O)c1c(NC(=O)c2cnn3c2NC(c2ccccc2)CC3C(F)(F)F)sc2c1CCCC2 (stereo not given)	0.76	0.67
COc1cccc(CNC(=O)COc2cccc(-n3cnnn3)c2)c1	0.64	-1.3
CC(C)OC(=O)c1cccc(NC(=O)CSc2nnc(N)s2)c1	0.03	-1.4
O=C(Nc1sc2c(c1-c1nc3ccccc3[nH]1)CCCC2)C1CC1	1.1	0.42
CC1=NN(C(=O)CCc2ccc3c(c2)OCO3)C(O)(C(F)(F)F)C1 (stereo not given)	1	-0.51
COc1ccccc1NC(=O)c1cc2ccccc2o1	0.22	-0.15
Cc1ccc(C(=O)O)cc1-n1c(=O)n(Cc2ccccc2)c(=O)c2[nH]cnc21	0.99	-3.5
CN(C)S(=O)(=O)c1ccc(N2C(=O)CC2(/C=C/c2ccccc2)C(=O)NC2CCCC2)cc1 (stereo not given)	0.59	0

Later entries.
structure	KCNQ2 pot	KCNQ2 pot baseline
CCOc1ccc(S(=O)(=O)NCCN2CCOCC2)c2ccccc12	0.02	0.12
CCOC(=O)N1CCN(C(=O)C(c2ccccc2)c2ccccc2)CC1	0.01	-0.57
CCCOc1ccc(N2CC(C(=O)Nc3ccccc3C(=O)NC)CC2=O)cc1 (stereo not given)	1.7	-1.5
COc1cccc(N2C(=O)C(O)=C(C(C)=O)C2c2ccc(OC)c(OC)c2)c1 (stereo not given)	1	-0.19
CC(C)(C)NC(=O)NC(=O)COC(=O)c1cc[n+]([O-])cc1	0.32	-0.44
O=C(NCCCN1CCOCC1)c1ccccc1NS(=O)(=O)c1ccc(F)cc1	0.92	-0.23
Cc1ccc(S(=O)(=O)CC(=O)N2CCOCC2)cc1	1.5	1.8
Cc1cc(C(=O)N/N=C/c2cccn2C)n[nH]1	1.1	-0.98
Cc1ccc(C(=O)Nc2nnc(-c3ccncc3)s2)o1	0.54	-0.13
Nc1nc2c(nc(Br)n2[C@@H]2O[C@@H]3COP(=O)(O)O[C@H]3[C@H]2O)c(=O)[nH]1	1.1	0.01
Cc1cccc(-n2cc[nH]c2=S)c1C	0.51	-0.96
O=C(COC(=O)CCC(=O)c1ccc(F)cc1)Nc1cccc(S(=O)(=O)N2CCCC2)c1	1.9	-1.9
COc1cc(CN2CCN(C(=O)c3ccccc3F)CC2)cc(OC)c1OC	0.45	-0.7
O=C1CN(c2ccc(Cl)cc2)C(=O)CN1NC(=S)Nc1ccc(Cl)cc1	1.3	1
CC(=O)c1nc2ccccc2n1S(=O)(=O)c1ccc(C)cc1	0.22	-0.99

Following part.
structure	KCNQ2 pot	KCNQ2 pot baseline
CC(C)(C)NC(=O)CN(Cc1cccs1)C(=O)CN1C(=O)C(=O)c2ccccc21	0.58	-2.4
COc1ccc(N(CC(=O)Nc2ccccc2C(=O)N2CCCC2)S(=O)(=O)c2ccccc2)cc1	0.03	1
CCOC(=O)C1CCN(C(=O)c2cc3cc(Br)ccc3oc2=O)CC1	1.3	0.38
COc1cccc(OC)c1C(=O)Nc1sc2c(c1C(N)=O)CCCC2	0.28	0.13
COc1ccc(CN(C(=S)Nc2ccccc2)C2CC(=O)N(c3ccc(Cl)cc3)C2=O)cc1 (stereo not given)	1.7	0.33
CC(=O)Nc1ccc(NC(=O)CSc2ccc([N+](=O)[O-])cn2)cc1	0.29	-0.62
CC(=O)N1CC(C)Sc2ccc(S(=O)(=O)NC(C)c3ccccc3)cc21 (stereo not given)	0.09	-0.9
CC(=O)N1CCc2cc(Br)cc(S(=O)(=O)N3CCN(c4ccccn4)CC3)c21	0.78	-0.56
CCCCOC(=O)c1ccc(NC(=S)NC(=O)c2ccco2)cc1	0.85	-0.95
CC(C)NC(=S)N/N=C/c1ccc(C(C)(C)C)cc1	0.57	1
O=C(COc1ccccc1)Nc1cccc2c1CCCC2	1.5	1.9
N/C(=N\OC(=O)COc1cc(Cl)c(Cl)cc1Cl)c1ccccn1	0.09	-3.1
C/C(=N\NC(=O)c1ccc(NS(=O)(=O)c2cccs2)cc1)c1ccc2c(c1)OCO2	2.2	-0.55
O=S(=O)(NNC(=S)Nc1ccc(S(=O)(=O)Nc2ncccn2)cc1)c1ccc(Br)cc1	0.18	0.14
COc1cc(/C=C2/C(=O)N(c3ccc([N+](=O)[O-])cc3)N=C2N2CCOCC2)ccc1O	1.2	-1.9

(next part)
structure	KCNQ2 pot	KCNQ2 pot baseline
CCOc1ccc(-c2noc(=O)[nH]2)cc1	1.4	-0.06
CC(NC(=O)OCc1ccccc1)C(=O)NCC1CCCO1 (stereo not given)	0.3	-0.04
COC(=O)C(C(=O)OC)C(CC(=O)c1ccc(C)cc1)c1cc(OC)c(OC)c(OC)c1 (stereo not given)	0.08	0.3
COC(=O)C(C)(C)ONC(=O)Nc1ccccc1	1.7	-0.65
Cc1ccc(S(=O)(=O)Nc2ncc(C(F)(F)F)cc2Cl)cc1	1.7	-0.37
O=C(/C=C/c1cccc(F)c1)N1CCN(c2ccccn2)CC1	1.2	-0.64
COc1ccccc1CNC(=O)c1cn(C)c(=O)c2cc(OC)c(OC)cc12	0.93	-0.54
COC(=O)c1cc(-c2ccccc2)n[nH]1	0.05	-1
O=C(c1ccccc1)N1CCN(C2CCCCCC2)CC1	1.5	0.3
COc1ccccc1OCC(=O)Nc1ccc(-c2nnc(-c3ccco3)o2)cc1	0.44	-0.19
Cc1ccc(N=C2SCCCN2C(=O)c2cccc(N3C(=O)CCC3=O)c2)cc1Cl	0.45	-1.1
NC(=O)C1CCN(CC(O)CSc2ccc(F)cc2)CC1 (stereo not given)	0.75	-0.05
CC(C)Oc1cccc(C(=O)C2CCCN(C(=O)c3cncs3)C2)c1 (stereo not given)	0.77	0.79
CCN(Cc1nc(-c2ccc(OC)c(OC)c2)no1)C(=O)c1ccoc1C	1.2	0.68
O=C(Nc1cccc(N2CCCC2)c1)c1cccs1	4.4	2

Given as labelled records: three of the compounds above
Compound: CCNC(=O)NC(=O)C(C)Sc1nnc(COc2ccccc2Cl)o1 (stereo not given)
  KCNQ2 pot: 2
  KCNQ2 pot baseline: -0.93

Compound: CCCn1c(N)[n+](CC(=O)c2ccco2)c2ccccc21
  KCNQ2 pot: 0.14
  KCNQ2 pot baseline: 0.86

Compound: CCOC(=O)c1sc2ncn(C(C)C(=O)OC)c(=O)c2c1C (stereo not given)
  KCNQ2 pot: 1.3
  KCNQ2 pot baseline: 1.4

More compounds follow:
structure	KCNQ2 pot	KCNQ2 pot baseline
O=c1[nH]c(Cc2cccs2)nc2ccccc12	1.4	0.44
CC(=O)N1CCN(C(=O)C2(NC(=O)Nc3cccc(F)c3)CCCCC2)CC1	0.02	-0.73
N#Cc1ccccc1S(=O)(=O)N1CCN(C(=O)C2CCCC2)CC1	0.53	-1.3
O=C(Nc1nc2ccccc2[nH]1)c1ccc(S(=O)(=O)N2CCOCC2)cc1	0.05	-1.9
CCS(=O)(=O)Nc1cccc(-c2nc3cccnc3s2)c1C	0.16	0.35
O=C(NCc1ccc(F)cc1)c1cc(S(=O)(=O)N2CCCCC2)c[nH]1	0.43	-1.2
COc1ccc(C(=O)Cn2cnc3ccccc3c2=O)c(OC)c1	0.02	-1.6
COc1ccccc1CN1CC(C(=O)N(Cc2cnn(C)c2)C(C)C)CCC1=O (stereo not given)	1.1	0.12
Cc1[nH]c2ccc(F)cc2c1CCN1C(=O)OC(C)(C)C1(C)O (stereo not given)	0.37	0.13
Cc1ccc(CNC(=O)c2ccc(Br)o2)cc1	4.8	0.85
COc1ccc(Br)cc1CNc1ccc(S(N)(=O)=O)cc1	1.6	0
COc1ccc(C(=O)NNC(=O)C(NC(=O)c2ccccc2NC(=O)c2ccco2)C(C)C)cc1 (stereo not given)	1.2	1.3
COc1ccc(-n2c(SCC(=O)O)nc3sc4c(c3c2=O)CCCC4)cc1	0.2	0.06
Cc1ccc2nc(-c3ccc(SCC(=O)O)nc3)[nH]c2c1	0.14	-2.2
N#Cc1cc2c([nH]c1=O)CCCC2	0.18	-0.92

The listing continues:
structure	KCNQ2 pot	KCNQ2 pot baseline
O=C1Nc2ccc3sc4ccccc4c3c2C1=O	0.02	-2.5
COc1cccc(N=Nc2c(=O)[nH]n3c(=O)cc(C)[nH]c23)c1	0.36	1.4
O=C(O)/C=C/c1ccc(Oc2ncccn2)cc1	0.81	1.6
COc1ccc(C(=O)Nc2ccc(S(=O)(=O)NC(C)(C)C)cc2)cc1[N+](=O)[O-]	1.5	-1.4
CCn1c(SCC(=O)NC2CCCC2)nnc1-c1ccccn1	0.8	2.5
O=C(NCCCO)C(=O)Nc1cc2c3c(c1)CCC(=O)N3CCC2	0.07	-0.67
COc1cccc(OC)c1C(=O)Nc1ccc(CN2CCOCC2)cc1	1	-1.9
Cn1cccc1/C=C(\C#N)C(N)=S	1.3	2.2
CC1CCN(S(=O)(=O)c2ccc3nc(N4CCN(c5ccccc5)CC4)ccc3c2)CC1	1.3	0
O=C(O)C1CCN(C(=O)c2ccccc2Cl)CC1	0.24	0.25
C=CCOc1ccc(C2c3c(oc4ccccc4c3=O)C(=O)N2CCCN2CCOCC2)cc1 (stereo not given)	0.1	-0.6
Cc1cc(C)n(-c2ccc(C(=O)NCc3ccc(F)cc3)cc2)n1	1.1	1.4

From PubChem BioAssay

These rows are one share of the data; count on the stated rates, not on these rows.
